Screens (PubChem BioAssay)
Mtb H37Rv: Mycobacterium tuberculosis H37Rv growth inhibition, putative kinase inhibitor library, confirmatory dose response (AID 2842) | M. tuberculosis H37Rv growth inhibition; higher % means a stronger effect; some inactives read as strong as hits | one-dose inhibition, % at 10 µg/mL; IC90 in µg/mL for titrated hits | hit rate 5.2% among 24,000;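 active means confirmed in a dose series; about a fifth of its hits are not listed in these tables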;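 further: bacteria incubated one week before Alamar blue readout; 0% = bacteria only wells and 100% = bacteria with high antibiotic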
* hit, by the source's call.

`CCOC(=O)c1cc(NC(=O)CSc2nc(C)nc3sc4c(c23)CCC4)cc(C(=O)OCC)c1` gave Mtb H37Rv -10%.
Screening CCCc1nc(SCC(=O)N2CCc3ccccc32)c2c(=O)n(C)c(=O)n(C)c2n1 returned Mtb H37Rv 9%.
Screening O=C(Nc1nnc(-c2ccc(F)cc2)s1)c1ccc2ccccc2c1 returned Mtb H37Rv 2%.
For O=C1CC(c2nc3ccccc3n2CCc2ccccc2)CN1Cc1ccccc1 (stereo not drawn) the results were Mtb H37Rv 18%.
`Cc1ccc(-c2nnc(NC(=O)c3ccc(S(=O)(=O)N4CCCC(C)C4)cc3)o2)c(C)c1` (stereo not drawn) gave Mtb H37Rv -6%.
Screening CCOC(=O)COc1cc2oc(=O)c3c(c2cc1Cl)CCC3 returned Mtb H37Rv 2%.
`Cc1cccc(NC(=O)CSc2nc(N)c(NC(=O)c3ccc(C(F)(F)F)cc3)c(=O)[nH]2)c1C` gave Mtb H37Rv -9%.
`O=c1[nH]cc(S(=O)(=O)NCc2cccs2)c(=O)[nH]1` gave Mtb H37Rv -4%.
Screening COCCCNc1oc(-c2ccco2)nc1S(=O)(=O)c1ccccc1 returned Mtb H37Rv 8%.
For Cc1cccc(CSc2cc(C)[nH]c(=O)n2)c1 the results were Mtb H37Rv -12%.
Screening CC(C)C(=O)Nc1c(C(=O)Nc2ccc(Cl)cc2)oc2ccccc12 returned Mtb H37Rv 3%.
For Cc1cccc(C(=O)Nc2nnc(-c3cc(Cl)ccc3Cl)o2)c1 the results were Mtb H37Rv 32µg/mL*.
For Fc1ccc(Nc2nc(Nc3ccc(F)cc3)c3nccnc3n2)cc1 the results were Mtb H37Rv -10%.
For Cn1c(=O)c2c(nc(N3CCC(C(N)=O)CC3)n2CCSc2nc3ccccc3s2)n(C)c1=O the results were Mtb H37Rv 2%.
For Cc1ccc(NC2SC(=O)N(CC(=O)O)C2=O)cc1 (stereo not drawn) the results were Mtb H37Rv 65%.
`O=C(/C=C/c1ccco1)Nc1nc(-c2ccc3c(c2)OCO3)cs1` gave Mtb H37Rv 0%.
For CCOc1ccc(C(=O)Nc2nnc(-c3ccccc3)s2)cc1 the results were Mtb H37Rv 4%.
For O=S1(=O)CC(O)C(NCc2cccnc2)C1 (stereo not drawn) the results were Mtb H37Rv -3%.
CCOC(=O)c1nn(-c2ccc(Cl)cc2)c(=O)c2c(NC(=O)Cc3ccc(F)cc3)scc12 was read as Mtb H37Rv 7%.
For C=CCn1c(=NC(=O)C2CCCCC2)sc2cc(NC(C)=O)ccc21 the results were Mtb H37Rv 13%.

In the list so far, three have an NH in an aromatic ring.
`Cc1cccc(NC(=O)CSc2nc(N)c(NC(=O)c3ccc(C(F)(F)F)cc3)c(=O)[nH]2)c1C` gave Mtb H37Rv -9%.
`O=c1[nH]cc(S(=O)(=O)NCc2cccs2)c(=O)[nH]1` gave Mtb H37Rv -4%.
For Cc1cccc(CSc2cc(C)[nH]c(=O)n2)c1 the results were Mtb H37Rv -12%.

New compounds follow
`COc1cccc(C(=O)Nc2nnc(-c3ccccc3C)s2)c1OC` gave Mtb H37Rv 14%.
`Fc1ccc(Nc2nc(N3CCN(c4ccc(F)cc4)CC3)nc3nccnc23)cc1` gave Mtb H37Rv 24%.
`Cc1ccc(-c2nnc3ccc(SCC(=O)Nc4cc(C)on4)nn23)cc1` gave Mtb H37Rv -2%.
Cc1cc(=O)[nH]c2c(C)cc(S(=O)(=O)Nc3cccc(C(=O)O)c3)cc12 was read as Mtb H37Rv -9%.
`Cc1ccc(C)c2[nH]c(=O)c(CCNC(=O)c3ccccc3C(F)(F)F)cc12` gave Mtb H37Rv 13%.
`CC(C)C(=O)Nc1nnc(-c2ccccc2)o1` gave Mtb H37Rv 3.3µg/mL*.
`CCn1c(SCC(=O)NC2CCCCC2)nc2c(c1=O)SC(C)C2` (stereo not drawn) gave Mtb H37Rv -2%.
Cc1ccc(COc2ccccc2-c2cc(C(=O)N/N=C\c3cccnc3)[nH]n2)cc1 was read as Mtb H37Rv 2%.
COC(=O)c1ccc(Cn2cnc3c(nnn3-c3ccc(Cl)cc3)c2=O)o1 was read as Mtb H37Rv 13%.
Screening O=C(NNc1nc2c(Cl)cccc2s1)c1ccc(F)cc1 returned Mtb H37Rv 74%.
`Cc1cccc(-n2nnc3c(=O)n(Cc4cccc5ccccc45)cnc32)c1` gave Mtb H37Rv 6%.
Screening O=C(NCc1ccncc1)C(=O)Nc1cc2c3c(c1)CCC(=O)N3CCC2 returned Mtb H37Rv 8%.
NC(=O)CSc1c(-c2ccccc2)[nH]c2ccccc12 was read as Mtb H37Rv 2%.
For C=CCn1c(=O)c2c(nc(N=Nc3c(O)[nH]c4ccccc34)n2C)n(C)c1=O the results were Mtb H37Rv -5%.
COc1ccc(N2CC(NC(=O)c3ccccc3OC)CC2=O)cc1OC (stereo not drawn) was read as Mtb H37Rv -18%.
For O=C(CCCc1nnc2c(=O)n(-c3ccc(Cl)cc3)ccn12)N1CCN(c2ccccc2F)CC1 the results were Mtb H37Rv 5%.
`COc1ccc(-n2ccnc(SCc3ccccc3Cl)c2=O)cc1OC` gave Mtb H37Rv -9%.
For O=C(NCc1ccc(F)cc1)NC1CC(=O)N(c2ccc(Cl)cc2)C1 (stereo not drawn) the results were Mtb H37Rv 11%.
Cc1ccc(OCC(O)Cn2c(NCCCO)nc3c2c(=O)n(C)c(=O)n3C)cc1C (stereo not drawn) was read as Mtb H37Rv 0%.
`O=C(CSc1nc2c(c(=O)n1-c1ccc(F)cc1)SCC2)NC1CCCCC1` gave Mtb H37Rv 5%.

Sorted by number of heavy atoms (largest number first): some entries from above
For O=C(CCCc1nnc2c(=O)n(-c3ccc(Cl)cc3)ccn12)N1CCN(c2ccccc2F)CC1 the results were Mtb H37Rv 5%.
`Cc1ccc(-c2nnc3ccc(SCC(=O)Nc4cc(C)on4)nn23)cc1` gave Mtb H37Rv -2%.
`COc1ccc(-n2ccnc(SCc3ccccc3Cl)c2=O)cc1OC` gave Mtb H37Rv -9%.
`COc1cccc(C(=O)Nc2nnc(-c3ccccc3C)s2)c1OC` gave Mtb H37Rv 14%.
Screening O=C(NNc1nc2c(Cl)cccc2s1)c1ccc(F)cc1 returned Mtb H37Rv 74%.

Quoted from the listing, 2 compounds:
Cc1ccc(OCC(O)Cn2c(NCCCO)nc3c2c(=O)n(C)c(=O)n3C)cc1C (stereo not drawn) was read as Mtb H37Rv 0%.
`O=C(CSc1nc2c(c(=O)n1-c1ccc(F)cc1)SCC2)NC1CCCCC1` gave Mtb H37Rv 5%.

Other results.
For CCc1cccc(OCC(O)Cn2c(NCCCOC)nc3c2c(=O)[nH]c(=O)n3C)c1 (stereo not drawn) the results were Mtb H37Rv 2%.
COc1ccc(/C=C2\SC(=Nc3ccc(F)cc3)NC2=O)cc1OC was read as Mtb H37Rv 2%.
CC(=O)Nc1ccc(N=Cc2ccc(OC(=O)c3cccnc3)cc2)cc1 was read as Mtb H37Rv 0%.
Cc1ccc(NC(=O)CN2N=NC3C(=O)N(c4ccc(F)c(F)c4)C(=O)C32)c(Cl)c1 (stereo not drawn) was read as Mtb H37Rv 3%.
`CCOC(=O)c1nn(-c2ccc(C)cc2)c(=O)c2c(NC(=O)c3cc(OCC)c(OCC)c(OCC)c3)scc12` gave Mtb H37Rv -3%.
`CS(=O)(=O)c1ccc(-c2nnc(NC(=O)c3cc(Cl)sc3Cl)o2)cc1` gave Mtb H37Rv 1%.
For CCOC(=O)c1nn(-c2ccc(F)cc2)c(=O)c2c(NC(=O)C(CC)c3ccccc3)scc12 (stereo not drawn) the results were Mtb H37Rv -12%.
`COc1ccc(OCC(=O)Nc2c(C(=O)Nc3ccccc3OC)oc3ccccc23)cc1` gave Mtb H37Rv 11%.
O=C(NCCCN1CCCC1=O)C(=O)c1c[nH]c2ccccc12 was read as Mtb H37Rv -1%.
`COCCn1c(C)cc(O)c(C(c2cccnc2)N2CCN(C)CC2)c1=O` (stereo not drawn) gave Mtb H37Rv -12%.
For Cc1nc2ccc3nc(NC(=O)CN4C(=O)CCC4=O)sc3c2s1 the results were Mtb H37Rv -1%.
Cc1ccc(-n2ncc3c(NNC(=O)c4cccc(Cl)c4)ncnc32)cc1Cl was read as Mtb H37Rv -5%.
Screening CCC(C)Nc1nc2c(c(=O)[nH]c(=O)n2C)n1CC(O)COc1cccc(C)c1 (stereo not drawn) returned Mtb H37Rv 8%.
Screening Cc1c(Cc2ccc3c(c2)OCO3)sc(NC(=O)/C=C\c2ccccc2)c1C#N returned Mtb H37Rv 11%.
For CCN1CCN(C(c2ccc(F)cc2)c2sc3ncnn3c2O)CC1 (stereo not drawn) the results were Mtb H37Rv 3%.
`COc1cc(/C=N/NC(=O)CNC(=O)c2cccc3ccccc23)cc(OC)c1OC` gave Mtb H37Rv -10%.
Cc1ccc(C)c(Nc2nc(N3CCN(c4ccc(F)cc4)CC3)nc3nccnc23)c1 was read as Mtb H37Rv -8%.
CCOC(=O)CSc1nc2c(c(=O)[nH]c(=O)n2C)n1CC was read as Mtb H37Rv 0%.
COc1ccccc1-c1nc2c(c(=O)[nH]1)Cc1cc(Cl)ccc1O2 was read as Mtb H37Rv -3%.
O=c1c(SCc2ccc(Cl)cc2)nccn1-c1ccc(F)cc1 was read as Mtb H37Rv 3%.
Screening CCN(CC)c1ccc(NC(=O)CSc2nc3nc(C)cc(C)c3c(=O)[nH]2)cc1 returned Mtb H37Rv -29%.
CCOc1ccc(N2CC(NC(=O)c3ccccc3C(F)(F)F)CC2=O)cc1 (stereo not drawn) was read as Mtb H37Rv -14%.
CS(=O)(=O)c1ccc(-c2nnc(NC(=O)c3ccc(Cl)s3)o2)cc1 was read as Mtb H37Rv 1.7µg/mL*.
Screening Cc1cccc(NC(=O)CSc2ccnc3c2c(=O)n(C)c(=O)n3C)c1C returned Mtb H37Rv 2%.
Cc1ccc(NS(=O)(=O)c2cc3c4c(c2)C(C)C(=O)N4CCC3)cc1Cl (stereo not drawn) was read as Mtb H37Rv 71%.
Screening COc1ccc2ccccc2c1C1NC(=O)NC(C)=C1C(=O)Nc1ccccc1F (stereo not drawn) returned Mtb H37Rv 6%.
For CCOC(=O)C1=C(C)NC(=O)NC1c1cccc2ccccc12 (stereo not drawn) the results were Mtb H37Rv 0%.
`CCOc1ccccc1NC(=O)c1oc2ccccc2c1NC(=O)C1CC(=O)N(c2ccccc2)C1` (stereo not drawn) gave Mtb H37Rv -4%.
`COc1cccc(NC(=O)c2oc3ccccc3c2NC(=O)c2cccc([N+](=O)[O-])c2)c1` gave Mtb H37Rv -2%.
Screening CCOc1cccc(-c2nc(C(N)=O)c3[nH]c(=O)n(-c4ccccc4OC)c3n2)c1O returned Mtb H37Rv 2%.
`NC(=O)c1oc2ccccc2c1NC(=O)c1cccc(NS(=O)(=O)c2ccccc2)c1` gave Mtb H37Rv -5%.
Cc1ccc(C)c(C(=O)Nc2c(C(N)=O)oc3ccccc23)c1 was read as Mtb H37Rv 4%.
CC(=O)N1CCc2c(sc(NC(=O)c3cccc(N4C(=O)CCC4=O)c3)c2-c2nc3ccccc3s2)C1 was read as Mtb H37Rv 1%.
O=C(Nc1nc(-c2cccc3ccccc23)cs1)c1ccc(S(=O)(=O)N2CCc3ccccc3C2)cc1 was read as Mtb H37Rv -1%.
COc1ccc(N(CC(=O)Nc2ccccc2C)C2=NC3CS(=O)(=O)CC3S2)cc1 (stereo not drawn) was read as Mtb H37Rv 5%.
CC(C)c1ccc(/C=C(\C#N)C(=O)Nc2ccc(N(C)C)cc2)cc1 was read as Mtb H37Rv 1%.
O=C(NCc1nnc(SCC(=O)N2CCCCC2)o1)c1c(F)cccc1F was read as Mtb H37Rv -19%.
For Cc1ccc2c(c1)NC(SCC(=O)Nc1ccc(C)c(F)c1)=NS2(=O)=O the results were Mtb H37Rv -7%.
For CCOC(=O)c1nn(-c2ccccc2)c(=O)c2c(NC(=O)COc3ccc4ccccc4c3)scc12 the results were Mtb H37Rv -10%.
`Cc1cc(C)c2sc(NNC(=O)c3nc4ccccc4s3)nc2c1` gave Mtb H37Rv 15µg/mL*.
Screening Nc1nc(SCC(=O)Nc2ccccc2C(F)(F)F)[nH]c(=O)c1NC(=O)c1ccco1 returned Mtb H37Rv -5%.
For NC(=O)c1nc(-c2ccncc2)nc2c1[nH]c(=O)n2-c1cccc(Cl)c1 the results were Mtb H37Rv 0%.
Cc1ccc(O)c(Nc2ncnc3ccc([N+](=O)[O-])cc23)c1 was read as Mtb H37Rv 26%.
N#CC1=C(N)Oc2c(oc(CO)cc2=O)C12C(=O)N(Cc1ccccc1)c1ccccc12 (stereo not drawn) was read as Mtb H37Rv -1%.
O=C(CSc1ccc2nnc(-c3cccc(F)c3)n2n1)NCc1ccc(F)cc1 was read as Mtb H37Rv 1%.
`COc1ccc(N2CCCS2(=O)=O)cc1NC(=O)c1cccc(C(F)(F)F)c1` gave Mtb H37Rv -9%.
Screening O=C(Oc1coc(CSc2ncccn2)cc1=O)c1ccc([N+](=O)[O-])cc1 returned Mtb H37Rv -14%.
Screening O=C(CC1(O)C(=O)Nc2ccc(Br)cc21)c1ccc(NS(=O)(=O)c2ccccc2)cc1 (stereo not drawn) returned Mtb H37Rv -1%.
O=C(CSc1nc2c(c(=O)n1-c1ccc(F)cc1)SCC2)Nc1ccc(Br)cc1 was read as Mtb H37Rv 4%.
`CCOc1ccc(N2CC(NC(=O)Nc3cccc4ccccc34)CC2=O)cc1` (stereo not drawn) gave Mtb H37Rv -2%.
Screening CC(=O)Nc1cccc(NC(=O)CSc2ccc(-c3ccc4c(c3)OCO4)nn2)c1 returned Mtb H37Rv -14%.
Screening O=C(CSc1ccc2nnc(-c3ccccc3)n2n1)NCc1ccc2c(c1)OCO2 returned Mtb H37Rv 18%.
O=C(Nc1cc2c3c(c1)CCN3C(=O)CC2)C(=O)Nc1ccccc1F was read as Mtb H37Rv 11%.
`COc1ccc(C(=O)Oc2coc(CSc3nnc(NC(C)=O)s3)cc2=O)cc1OC` gave Mtb H37Rv -3%.
`COc1ccc(Cc2nnc(NCCc3ccc(OC)c(OC)c3)[nH]c2=O)cc1` gave Mtb H37Rv -13%.
Cc1ccc(N2CC(NS(=O)(=O)c3cccs3)CC2=O)cc1 (stereo not drawn) was read as Mtb H37Rv 2%.
Cc1cc(C)cc(-n2nnc3c(=O)n(CC(=O)N4CCN(c5ccccc5)CC4)cnc32)c1 was read as Mtb H37Rv 7%.

Not all compounds are listed; the hit share may differ from the screen's.
